Rango complex inh = inhibitors of Rango-importin beta complex formation; Rango CFP/YFP FRET sensor + importin beta, 45 min; Potency, µM (series often up to 92.2 µM), without a hit: at the highest dose inhibition of complex formation; actives 0.031% (n = 340,000); active = rising FRET ratio curve, often small or poorly fitted; inconclusive = mostly compound fluorescence or quenching in the first reads; inactive = flat curves in all reads;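 note: potency is the fitted concentration of half-maximal effect; 0% = DMSO wells and 100% = buffer wells lacking importin beta; nearly all actives have a fitted effect of over 15% in size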
Target sequence (Q14974 whole entry, looked up): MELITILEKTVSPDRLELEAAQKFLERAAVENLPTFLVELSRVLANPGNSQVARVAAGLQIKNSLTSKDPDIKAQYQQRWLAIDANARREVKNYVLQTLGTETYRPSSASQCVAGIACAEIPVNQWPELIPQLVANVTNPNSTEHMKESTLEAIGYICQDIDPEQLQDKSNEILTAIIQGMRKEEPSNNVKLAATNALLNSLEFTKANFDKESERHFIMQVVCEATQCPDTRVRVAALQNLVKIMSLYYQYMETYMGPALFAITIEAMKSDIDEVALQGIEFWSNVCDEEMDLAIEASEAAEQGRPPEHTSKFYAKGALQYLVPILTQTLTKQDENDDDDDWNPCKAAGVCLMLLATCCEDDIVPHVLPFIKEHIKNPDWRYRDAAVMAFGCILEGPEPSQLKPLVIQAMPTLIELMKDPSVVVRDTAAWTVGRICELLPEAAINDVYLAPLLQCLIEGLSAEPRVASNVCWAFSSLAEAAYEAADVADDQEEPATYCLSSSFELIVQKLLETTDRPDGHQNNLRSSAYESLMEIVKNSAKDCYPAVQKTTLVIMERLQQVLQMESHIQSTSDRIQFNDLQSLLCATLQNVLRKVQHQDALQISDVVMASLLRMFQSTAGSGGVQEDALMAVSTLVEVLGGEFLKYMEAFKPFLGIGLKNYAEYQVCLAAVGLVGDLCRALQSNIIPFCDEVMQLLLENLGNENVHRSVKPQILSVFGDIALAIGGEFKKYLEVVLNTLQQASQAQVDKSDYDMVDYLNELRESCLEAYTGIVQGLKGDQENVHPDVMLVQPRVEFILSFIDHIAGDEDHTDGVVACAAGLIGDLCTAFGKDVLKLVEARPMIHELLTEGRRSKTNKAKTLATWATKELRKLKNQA
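FRET biosensor (snurportin 1 IBB flanked by EYFP and cerulean), 50 nM, with compound 5 min, then 0.125 microM importin beta in PBS, 1 mM DTT, 0.02% Tween-20, 0.1% BSA. CFP/YFP ratio read after 45 min at room temperature; pre-read flags interference.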
Rango dissoc inh = inhibitors of RanGTP-induced Rango-importin beta complex dissociation. O95149+P62826. Biochemical FRET Rango-importin beta, RanGTP-induced dissociation. Potency, µM (top dose mostly 46.1 µM), inactives show at the top dose activity change, negative = inhibition. actives 0.071% (n = 340,000). AID 540253; active means falling FRET ratio curve, often poorly fitted, with flat reads before Ran was added; inconclusive means other falling curves, or compound fluorescence or quenching; inactive means flat or rising ratio curve;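 note: potency is the fitted concentration of half-maximal effect; % of control where 0% means no effect; nearly all actives have a fitted effect of over 45% in size; -100% = wells without RanGTP and RCC1; the record marks most hits as doubtful in a second field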
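Compounds sat 5 min at room temperature with 0.1 uM Rango biosensor plus 0.25 uM importin beta, then FRET pre-read. RanGTP-RCC1 (0.6 uM Ran, 2mM GTP, 0.2 uM RCC1) added for 45 min, and the CFP/YFP post-read measured blocked complex dissociation.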
miR-21 reporter = raises the signal of a miR-21 reporter; HeLa miR-21 FLuc reporter, luciferase, 48 h; Potency, µM (top dose mostly 38.3 µM), for the others: at the highest dose reporter change, positive = more light; 340,000 tested, under 10 active; active = well fitted rising curve with a large enough effect; inconclusive = small, poorly fitted or top-dose-only effect; inactive = no such curve, though single readings can be large or run the other way;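 note: % of control where 0% means no effect; miR-21 action dims this reporter so a rising signal means less miR-21 action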
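HeLa cells stably expressing CMV-driven firefly luciferase with a downstream miR-21 binding sequence, endogenously expressing miR-21, were treated with titrations (up to about 40uM final) for 48 hours at 37 degree Celsius. Luciferase luminescence was read after lysis.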
GLA inh pH 4.5 = alpha-galactosidase A (human) inhibition, pH 4.5; purified enzyme, 4-MU-alpha-Gal fluorescence, pH 4.5; activity change, negative = inhibition, % at 105 µM; 230,000 tested, under 10 active; AID 1467; inconclusive = small, poorly fitted or top-dose-only inhibition, or a rising curve; inactive = flat fitted curve, though single readings scatter; no compound was filed as active;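 note: 0% = full activity with enzyme and -100% = basal without enzyme; dose as in the result columns while the protocol names 77 µM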
* marks the source's active call; other numbers are inactive results; ? = inconclusive; / = no result given; & = joins results of further samples; [ ] = remark or other dose. These rows are one share of the data; rates above refer to the full screens.

miR-21 reporter	Rango complex inh	GLA inh pH 4.5	Rango dissoc inh	SMILES
0%	0.0%	/	-10%	CC(=O)Nc1ccc(S(=O)(=O)N2CCN(C(=O)c3ccco3)CC2)cc1
-5%	-3.0%	9	-11%	CN(C)S(=O)(=O)c1cc(NC(=O)CN2CCNC(=O)C2)ccc1Cl
8%	-0.1%	/	1%	COc1ccc(NC(=O)CCCNC(=O)Cn2cnc3sc(C)c(C)c3c2=O)c(OC)c1
14%	?	-27	2%	COc1ccc(Nc2cc(C(=O)N3CCc4ccccc4C3)c3ccccc3n2)c(OC)c1
-55%	0.3%	/	-5%	Cc1cnc(C(=O)NCCc2ccc(Cl)cc2)cn1
1%	-1.8%	2	-3%	COCCn1c(N2CCN(c3ccccc3)CC2)nc2c1c(=O)n(C)c(=O)n2C
-3%	0.3%	3	1%	O=C(CSC1=NCCS1)NCc1ccco1
-2%	-1.2%	/	-6%	CC(C)CC1Nc2ccc(C(=O)NCCCN3CCOCC3)cc2NC1=O (configuration not stated)
-11%	?	5	-28%	COc1cc(/C=C2/C(=N)N3C=CSC3=NC2=O)ccc1OCCCOc1cc(C)ccc1C
-6%	-6.2%	3	1%	COc1ccc(Br)cc1S(=O)(=O)n1ccnc1
0%	1.9%	/	-6%	Clc1cccc(OCCCCN2CCCCC2)c1
/	-1.0%	/	14%	O=C(COC(=O)c1cc(S(=O)(=O)Nc2ccccc2Cl)ccc1O)Nc1ccc(F)c(F)c1F
-19%	-1.0%	/	-19%	O=C(Nc1cccc2ccccc12)c1ccccc1Cl
16%	?	/	-15%	COc1cccc(NC(=O)[C@H](Cc2c[nH]c3ccccc23)NC(=O)[C@@H]2Cc3ccccc3CN2)c1
-1%	-1.8%	-6	?	COc1cc(OC)cc(C(=O)NC(=S)Nc2ccc(NC(=O)c3ccco3)cc2)c1
0%	1.1%	/	-4%	CCOC(=O)Cn1cnc2scc(-c3ccc(C)cc3)c2c1=O
/	?	/	?	c1ccc(CNc2c(-c3cccc(SC4CCCCC4)c3)nc3ccccn23)cc1
-8%	-0.5%	0	-21%	COc1ccc(C(CNC(=O)CN2C(=O)NC3(CC(C)CC(C)(C)C3)C2=O)N2CCOCC2)cc1 (configuration not stated)
0%	-0.5%	-1	5%	Cc1ccc2c(c1)N(CC(=O)Nc1ccc3c(c1)OCCO3)C(=O)CO2
-42%	4.5%	-5	8%	CCS(=O)(=O)c1ccc(O)c(NC(=O)/C=C/c2ccccc2)c1
/	-0.3%	/	-3%	CCN(CC)c1nc(NN)nc(Nc2ccc(C)c(Cl)c2)n1
0%&0%	2.4%	/	-9%	COc1ccc(NC(=O)CCS(=O)(=O)c2ccc3c(c2)oc(=O)n3C)cc1OC
-5%	2.8%	-3	1%	COc1ccc2c(c1)-c1nc(NC(=O)c3cccs3)sc1CC2
/	6.8%	/	-2%	O=C(COC(=O)c1cc(S(=O)(=O)N2CCOCC2)ccc1Cl)NCc1ccco1
18%	0.1%	-4	2%	CCCOP(=O)(OCCC)c1c([N+](=O)[O-])cc(C(F)(F)F)cc1[N+](=O)[O-]
-52%	-1.2%	-3	10%	CC(C)Oc1ccc(C(=O)NCc2cccs2)cc1
4%	0.5%	-5	1%	Cc1ccc(NC(=O)/C(Cl)=C\c2ccccc2)cc1
?	?	-7	12%	COc1ccc(Nc2ncc(C(=O)N3CCN(c4ccc(F)cc4)CC3)c3ccccc23)cc1
-9%	0.0%	-8	2%	O=C(c1cc2n(n1)C(C(F)(F)F)CC(c1ccc(Cl)cc1)N2)N1CCCC1 (configuration not stated)
-2%	5.4%	-2	2%	O=C(Nc1ccc([N+](=O)[O-])cn1)c1cc(-c2cccc(Cl)c2)nc2ccccc12
0%	1.7%	/	-5%	Cc1ccc(-n2nc(C(=O)O)c(C)c(C#N)c2=O)cc1Cl
/	0.4%	/	2%	COCCN(Cc1nc2ccccc2c(=O)[nH]1)C(=O)c1cccc(S(=O)(=O)N2CCCC2)c1
-9%	2.5%	4	-9%	O=C(NCCC1=CCCCC1)C1CCN(S(=O)(=O)c2cccc3nsnc23)CC1
-50%	4.3%	/	6%	CCOc1ccc(NC(=O)N2CCc3ccccc3C2)cc1
-1%	-1.3%	/	1%	Cc1cc(OC(=O)c2ccccc2C(F)(F)F)c([N+](=O)[O-])c(=O)[nH]1
-20%	2.9%	10	1%	CCOC(=O)N1CCN(C(=O)c2ccccc2NC(=O)c2ccc(Br)cc2)CC1

Reformatted with two lines to a compound: 17 of the compounds above.
Values run as follows: miR-21 reporter, Rango complex inh, GLA inh pH 4.5, Rango dissoc inh
CCS(=O)(=O)c1ccc(O)c(NC(=O)/C=C/c2ccccc2)c1
  -42%, 4.5%, -5, 8%
CCN(CC)c1nc(NN)nc(Nc2ccc(C)c(Cl)c2)n1
  /, -0.3%, /, -3%
COc1ccc(NC(=O)CCS(=O)(=O)c2ccc3c(c2)oc(=O)n3C)cc1OC
  0%&0%, 2.4%, /, -9%
COc1ccc2c(c1)-c1nc(NC(=O)c3cccs3)sc1CC2
  -5%, 2.8%, -3, 1%
O=C(COC(=O)c1cc(S(=O)(=O)N2CCOCC2)ccc1Cl)NCc1ccco1
  /, 6.8%, /, -2%
CCCOP(=O)(OCCC)c1c([N+](=O)[O-])cc(C(F)(F)F)cc1[N+](=O)[O-]
  18%, 0.1%, -4, 2%
CC(C)Oc1ccc(C(=O)NCc2cccs2)cc1
  -52%, -1.2%, -3, 10%
Cc1ccc(NC(=O)/C(Cl)=C\c2ccccc2)cc1
  4%, 0.5%, -5, 1%
COc1ccc(Nc2ncc(C(=O)N3CCN(c4ccc(F)cc4)CC3)c3ccccc23)cc1
  ?, ?, -7, 12%
O=C(c1cc2n(n1)C(C(F)(F)F)CC(c1ccc(Cl)cc1)N2)N1CCCC1 (configuration not stated)
  -9%, 0.0%, -8, 2%
O=C(Nc1ccc([N+](=O)[O-])cn1)c1cc(-c2cccc(Cl)c2)nc2ccccc12
  -2%, 5.4%, -2, 2%
Cc1ccc(-n2nc(C(=O)O)c(C)c(C#N)c2=O)cc1Cl
  0%, 1.7%, /, -5%
COCCN(Cc1nc2ccccc2c(=O)[nH]1)C(=O)c1cccc(S(=O)(=O)N2CCCC2)c1
  /, 0.4%, /, 2%
O=C(NCCC1=CCCCC1)C1CCN(S(=O)(=O)c2cccc3nsnc23)CC1
  -9%, 2.5%, 4, -9%
CCOc1ccc(NC(=O)N2CCc3ccccc3C2)cc1
  -50%, 4.3%, /, 6%
Cc1cc(OC(=O)c2ccccc2C(F)(F)F)c([N+](=O)[O-])c(=O)[nH]1
  -1%, -1.3%, /, 1%
CCOC(=O)N1CCN(C(=O)c2ccccc2NC(=O)c2ccc(Br)cc2)CC1
  -20%, 2.9%, 10, 1%

Two of the compounds above, field by field:
Compound: Cc1cc(OC(=O)c2ccccc2C(F)(F)F)c([N+](=O)[O-])c(=O)[nH]1
- miR-21 reporter: -1%
- Rango complex inh: -1.3%
- GLA inh pH 4.5: /
- Rango dissoc inh: 1%
Compound: CCOC(=O)N1CCN(C(=O)c2ccccc2NC(=O)c2ccc(Br)cc2)CC1
- miR-21 reporter: -20%
- Rango complex inh: 2.9%
- GLA inh pH 4.5: 10
- Rango dissoc inh: 1%

Carrying on.
miR-21 reporter	Rango complex inh	GLA inh pH 4.5	Rango dissoc inh	SMILES
/	?	/	-14%	COc1ccc2[nH]c3c(c2c1)CCN1C(=O)C(CC(=O)NCCc2ccccn2)C[C@H](C(=O)N2CCCCC2)[C@@]31CCc1ccccc1 (some centres not stated)
-13%	-1.2%	/	8%	N#CCCn1cc(C(N)=O)c(-c2ccc3ccccc3c2)n1
-1%	3.4%	/	-2%	O=C(COc1ccc2c(-c3ccccc3)cc(=O)oc2c1)Nc1ccc(CN2CCOCC2)cc1
-6%	7.8%	1	16%	CN(C)c1ccc(NC(=O)Oc2ccccc2)cc1
-10%	?	0[21.1 µM]	-12%	COc1cc(-c2nc3ccccn3c2/N=C/c2ccc(F)cc2)ccc1O
-6%	-1.6%	0	-8%	Cc1ccc(-c2cc(C(F)(F)F)nc(SCC(=O)c3cccc([N+](=O)[O-])c3)n2)cc1
-51%	0.9%	/	7%	CCCc1ccc2oc(C(=O)NCCc3cnn(C)c3)c(C)c2c1
-7%	0.1%	/	3%	O=C(Nc1cccc([N+](=O)[O-])c1)c1cc(S(=O)(=O)Nc2ccccn2)ccc1Cl
-1%	-2.7%	4	1%	CCOC(=O)c1c(NC(=S)Nc2ccc(Cl)cc2)sc(C)c1C
-9%	1.0%	3	2%	CC(=O)N1CCN(c2c(F)c(F)c(C(F)(F)F)c(F)c2F)CC1
/	-0.7%	/	1%	COc1ccc(Cl)cc1S(=O)(=O)N1CCN(C(=O)c2n[nH]c(=O)c3ccccc23)CC1
-7%	5.6%	-5	1%	C=C(C)C1CC=C(C)/C(=N/NC(=O)COc2ccccc2C)C1 (configuration not stated)
-21%	-4.8%	/	-15%	O=C(NCCc1ccc(F)cc1)c1ccncc1
1%	-0.2%	/	22%	C#CCOn1c(-n2nc(C)cc2C)nc2ccccc2c1=O
-1%	0.1%	1	12%	CCOc1cc(C(=O)NC(C)Cc2cccs2)cc(OCC)c1OCC (configuration not stated)
-4%	3.0%	11	3%	Cc1cc(S(=O)(=O)NCC(C)C)ccc1OCC(=O)NCc1ccccn1
-15%&-15%	-3.9%	/	5%	Cc1ccccc1Nc1ncnc2c1cnn2C
-73%	-1.8%	/	2%	COc1ccccc1-c1cc(C(=O)N2CCOCC2)no1
9%	2.6%	-18	-5%	Cc1ccc(S(=O)(=O)NCCC(c2ccccc2)c2ccccc2)cc1C(=O)O
6%	-1.3%	/	-2%	COc1cc(C)cc(CN2CCC(Cc3ccccc3)CC2)c1O
-8%	3.8%	3	1%	O=C(COc1ccccc1)N1CCN(C(=O)c2ccco2)CC1
-3%	-2.2%	/	2%	Cc1c(C)c2ccc(OCC(=O)NCCc3c[nH]c4ccccc34)c(C)c2oc1=O
1%	-3.7%	5	0%	C=CCNC(=S)NC(=O)c1csc([N+](=O)[O-])c1
-2%	-0.4%	/	1%	Cc1cc(C2C(=O)c3ccccc3C2=O)c(C)c(C)c1C
-68%	?	-20	?	COc1cc(-c2cc(=O)c3c(O)cc(O)cc3o2)ccc1O
-20%	?	-9	-18%	COc1ccc(C2CC(c3ccccc3)=NN2C(=O)COC(=O)c2cccc(S(=O)(=O)N3CCOCC3)c2)cc1 (configuration not stated)
-24%	-3.5%	2	5%	O=C(NCc1ccccn1)c1cc(Br)ccc1Cl
-13%	?	-8	?	CSc1ccccc1N=Cc1nc(-c2ccccc2)oc1O
-21%	-0.5%	11	3%	c1ccc(-c2cnc(CSc3ncnc4sccc34)o2)cc1
-1%	-0.8%	3	-13%	COc1ccc(NC(=O)CN2CCN(CC(=O)Nc3ccccc3Cl)CC2)cc1Cl
-2%	-0.2%	/	16%	CC(CCc1ccccc1)NC(=O)c1cnc(Cl)c(Cl)c1 (configuration not stated)
6%	-3.5%	3	-9%	Cc1ccc(NC(=O)CC(O)(C(F)(F)F)C(F)(F)F)cc1
-1%	?	0	8%	Cc1noc(C)c1S(=O)(=O)NC1CCCc2ccccc21 (configuration not stated)
-5%	0.5%	/	2%	COc1ccccc1/C=C/C(=O)OCCN1C(=O)c2ccccc2C1=O
-6%	-1.1%	/	40%	Cc1[nH]n(C(N)=S)c(=O)c1N=Nc1ccc([N+](=O)[O-])cc1Cl
-6%	-1.0%	-8	-11%	O=[N+]([O-])c1ccc(C(=S)N2CCCC2)cc1
-6%	2.8%	1	19%	OCCNc1nc2ccccc2n1CCN1CCCCC1
-14%	5.0%	/	13%	O=C(CN1CCN(Cc2ccccc2F)CC1)Nc1ccccc1Cl
-1%	-0.2%	8	20%	CCOC(=O)/C(C#N)=C(/C)c1ccc(OC)cc1
/	3.6%	/	17%	N#CC1C(=N)Cc2ccccc2-c2ccccc21 (configuration not stated)
-9%	?	/	7%	Cc1ccc(CNc2cc(C(=O)O)ccc2Cl)s1
-7%	1.6%	8	-6%	Cc1cc2nc(SCC(=O)Nc3nonc3C)c3c(c2cc1C)CCCC3
-42%	-2.1%	/	-5%	COc1ccc(NC(=O)c2cccnn2)cc1
